Screening results from PubChem.
Sfp inh – qHTS Assay for Inhibitors of Bacillus subtilis Sfp phosphopantetheinyl transferase (PPTase); Potency, µM, for inactives: max response, negative = inhibition, hits mostly inhibitors; Biochemical Sfp PPTase activity, qHTS; actives 3.5% (n = 310,000); 4'-phosphopantetheinyl transferase ffp (Bacillus subtilis), Q9F4F7; AID 1490, 2009; active = well fitted inhibition curve with a large enough effect; inconclusive = small, poorly fitted or top-dose-only effect, or another doubt; inactive = no such curve, though single readings can be large or run the other way;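 note: the enzyme is Sfp with the accession as filed and its product quenches rhodamine fluorescence; potency is the fitted concentration of half-maximal effect; 0% = enzyme reaction without inhibitor and -100% = no enzyme wells; top concentration of the series not given in the record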
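Fluorescence-quenching assay with 15 nM Sfp, 5 uM rhodamine-CoA and 12.5 uM BHQ-2-labelled ybbR peptide in pH 7.6 Hepes/MgCl2 buffer. Enzyme was pre-incubated with compound for 15 min at room temperature. Rate was taken from the 30-min fluorescence change (525/598 nm).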
Menin MLL FP FL – qHTS Assay for Inhibitors Targeting the Menin-MLL Interaction in MLL Related Leukemias: Competition With Fluorescein Labeled MLL-derived Peptide; Fluorescence polarization, fluorescein-MLL peptide displacement from menin; FP activity change, % at 61.4 µM; 290,000 tested, under 10 active; inconclusive = falling polarisation curve, or a change in total fluorescence; inactive = total fluorescence flat and polarisation flat or rising; no compound was filed as active; the % refers to the polarisation; negative = inhibition;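 note: % of control where 0% means no effect; inhibitors lower the polarisation; unlabelled MLL peptide was the positive control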
gsp antagonist – qHTS for Antagonists of gsp, the Etiologic Mutation Responsible for Fibrous Dysplasia/McCune-Albright Syndrome: qHTS; AID 624288, 2012; actives 0.4% (n = 340,000); Potency, µM (highest dose often 76.9 µM), for inactives: at the highest dose activity change, negative = inhibition, actives largely listed as inhibitors; gsp-mutant cells, cAMP HTRF, 30 min; control for the full effect not named in the record; active = falling curve of any shape with a large fitted effect; inconclusive = falling curve, mostly with a smaller effect; inactive = flat or rising curve; cell line not stated here;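 note: intracellular cAMP measured with PDE inhibitor Ro 20-1724 present during compound exposure; potency is the fitted concentration of half-maximal effect; % is set by controls: 0 for no effect and ±100 for the full control effect; nearly all actives have a fitted effect of over 65% in size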
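Cells in G418 medium, seeded 16-24 h, 37C; buffer exchange to DPBS + 1 mM CaCl2, 0.5 mM MgCl2, 0.05% BSA; cpds in DMSO + […] (300 uM stock), 30 min 37C; HTRF cAMP detection.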
CtBP-E1A blk – qHTS Assay for Inhibitors of the CtBP/E1A Interaction. AlphaScreen GST-E1A/His-CtBP binding, 1536-well; active compounds read low; control for the full effect not named in the record. activity change, % (test concentration not listed). actives 0.49% (n = 340,000); in the data active means activity change below about -65%; inconclusive means about -30% to -65%; inactive means above about -30%; note: % is set by controls: 0 for no effect and ±100 for the full control effect
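GST-E1A and His-tagged CtBP (125 nM each as 5X stock) were preincubated with pin-transferred compound for 2 h at 37 °C in the dark, then glutathione donor and nickel acceptor beads were added for 1 h before AlphaScreen reading.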
ClpP mod – qHTS Assay for Activators of ClpP | actives 1.9% (n = 340,000) | ATP-dependent Clp protease proteolytic subunit (Bacillus subtilis (strain 168)), P80244 | Potency, µM (doses to about 57.5 µM), inactives show at the highest dose activity change, negative = active | purified B. subtilis ClpP, FRET peptide cleavage, 20 min; active = well fitted falling curve with a large enough effect; inconclusive = small, poorly fitted or top-dose-only effect; inactive = no such curve, though single readings can be large or run the other way; note: potency is the fitted concentration of half-maximal effect; the source files actives as falling curves though it sought activators and does not explain the sign; nearly all actives have a fitted effect of over 65% in size; many hits overshoot -100%
Target sequence (P80244 whole entry, looked up): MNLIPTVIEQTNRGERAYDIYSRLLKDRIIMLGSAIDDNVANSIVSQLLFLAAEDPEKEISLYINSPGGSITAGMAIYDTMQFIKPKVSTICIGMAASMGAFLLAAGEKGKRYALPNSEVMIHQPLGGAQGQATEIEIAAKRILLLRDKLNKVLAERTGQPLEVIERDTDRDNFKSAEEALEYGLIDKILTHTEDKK
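Purified B. subtilis ClpP, 10 microg/mL final in Tris/HCl pH8 with KCl, BSA, glycerol and Tween-20, cleaved an Abz/nitrotyrosine-quenched decapeptide. Fluorescence (ex 320, em 430) was read at 0 and 20 min at room temperature. Delta was normalized to 5.8 microM ADEP and DMSO/no-enzyme controls.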
TRPV1 PAM – HTS Assay for Compounds that Act as Potentiators of the Vanilloid Receptor 1; potentiation, % at 8.33 µM; Transient receptor potential cation channel subfamily V member 1 (Homo sapiens), Q8NER1; AID 540277, 2011; TRPV1-expressing cells, Fluo-8 calcium influx, capsaicin EC20 potentiation; host cell line not named in the record; control for the full effect not named in the record; actives 0.02% (n = 320,000); active means potentiation above 80%; inconclusive means 30% to 80%; inactive means below 30%; note: 0% is about no effect
Target sequence (Q8NER1 whole entry, looked up): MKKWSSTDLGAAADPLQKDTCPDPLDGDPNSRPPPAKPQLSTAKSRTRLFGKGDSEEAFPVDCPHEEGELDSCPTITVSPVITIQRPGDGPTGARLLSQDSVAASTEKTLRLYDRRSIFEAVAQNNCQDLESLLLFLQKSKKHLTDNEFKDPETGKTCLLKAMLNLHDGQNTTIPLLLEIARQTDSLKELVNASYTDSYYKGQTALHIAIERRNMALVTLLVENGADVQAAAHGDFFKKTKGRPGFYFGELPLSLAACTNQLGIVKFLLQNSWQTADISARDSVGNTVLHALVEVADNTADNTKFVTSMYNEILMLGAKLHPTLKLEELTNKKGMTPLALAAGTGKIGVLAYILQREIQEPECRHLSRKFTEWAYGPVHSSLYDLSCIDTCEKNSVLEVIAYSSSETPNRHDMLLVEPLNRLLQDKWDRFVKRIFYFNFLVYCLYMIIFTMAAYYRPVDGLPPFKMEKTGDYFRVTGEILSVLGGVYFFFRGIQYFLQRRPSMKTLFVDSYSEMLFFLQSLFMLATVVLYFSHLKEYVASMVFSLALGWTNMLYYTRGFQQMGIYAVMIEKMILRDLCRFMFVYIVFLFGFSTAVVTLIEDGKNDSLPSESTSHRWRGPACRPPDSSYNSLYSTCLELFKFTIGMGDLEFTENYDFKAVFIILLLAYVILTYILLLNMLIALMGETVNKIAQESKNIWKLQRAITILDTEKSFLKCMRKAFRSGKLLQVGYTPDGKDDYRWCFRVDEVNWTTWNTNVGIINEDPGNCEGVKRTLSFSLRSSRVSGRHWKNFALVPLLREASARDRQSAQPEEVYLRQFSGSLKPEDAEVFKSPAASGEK
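Cells expressing TRPV1 were dye-loaded with Fluo-8 and read kinetically: 10 s baseline, 3 min after compound (agonist portion), then 2 min after EC20 capsaicin (allosteric enhancer portion). Calcium-bound dye fluorescence at 480/520 nm.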
gsp ag – qHTS for Agonist of gsp, the Etiologic Mutation Responsible for Fibrous Dysplasia/McCune-Albright Syndrome: qHTS; gsp mutant cells, cAMP HTRF, 30 min; control for the full effect not named in the record; Potency, µM (series often up to 76.9 µM), for inactives: top-dose activation (cAMP increase), usual class: activators; actives 0.13% (n = 340,000); active = well fitted activation curve with a large enough effect; inconclusive = small, poorly fitted or top-dose-only effect, or another doubt; inactive = no such curve, though single readings can be large or run the other way; cell line not stated here;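 note: phosphodiesterase inhibitor Ro 20-1724 added with compounds to block cAMP breakdown; potency is the fitted concentration of half-maximal effect; nearly all actives have a fitted effect of over 60% in size; about a fifth of the inactives were tested at one dose only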
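Cells stably selected in G418 were plated at 2000/well, grown 16-24 hr, then given compounds in DMSO with the PDE inhibitor […] (300 uM solution added) for 30 min at 37C; cAMP was read by HTRF.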
* marks the source's active call; other numbers are inactive results; ? = inconclusive; · = no result given; [ ] = dose if it differs, or a comment.

SMILES	Sfp inh	Menin MLL FP FL	gsp antagonist	CtBP-E1A blk	ClpP mod	TRPV1 PAM	gsp ag
COC(=O)c1c(NC(=O)CCCC(=O)O)sc2c1CCCCC2	?	2.1	-13%	-15	60%	-10	-3%[15.4 µM]
Cc1nc(-c2ccccn2)nc(N2CCOCC2)c1Cl	14%	-1.1	4%	-9	·	-18	-3%
CC(NC(=O)COc1cccnc1[N+](=O)[O-])c1ccc(Cl)cc1Cl (stereo not given)	10%	3.0	-5%	4	0.4%	2	?
Cc1cc(C)c2oc(C(=O)Nc3ccc(S(=O)(=O)Nc4nccs4)cc3)cc(=O)c2c1	16%	0.6	-17%	?	-1.1%	-4	-3%
O/N=C1\CCCc2nnc3c(c21)CCCC3	3%	0.0	-19%	-1	0.5%	6	-47%[inhibitor]
Cc1ccccc1NC(=O)C[n+]1cc(-c2ccccc2)n2c1CCC2	3%	-0.8	9%	-23	-1.2%	-4	5%[15.4 µM]
COc1ccc(C(=O)CSc2nc3c(c(=O)n(C)c(=O)n3C)n2C)cc1	4%	3.2	·	·	·	3	·
CCN1C(=O)[C@H]2[C@@H](c3ccc(C)cc3)N3C(=O)N(c4cccc(Br)c4)C(=O)[C@@]3(CC)[C@H]2C1=O	·	·	-7%	2	-0.5%	-23	20%
Cc1ccc(-c2nc3c(=O)n(-c4ccccc4)c4c(c(=O)n(C)c(=O)n4C)c3o2)cc1	-14%	4.4	?	1	-0.6%	-2	-5%[15.4 µM]
Cc1cc(C)nc(SC(C(=O)O)c2ccccc2)n1 (stereo not given)	11%	4.0	8%	-24	-5.2%	11	-4%[15.4 µM]
COc1ccc(N2CCN(C(=O)CCS(=O)(=O)c3ccc(C)cc3)CC2)cc1	4%	4.3	-4%	-3	-5.0%	7	-46%[inhibitor]
COC(=O)C(Cc1c[nH]c2ccccc12)NC(=O)CNC(C)=O (stereo not given)	6%	3.2	7%	0	-1.6%	-5	2%
O=c1cc(CSc2nnnn2-c2ccccc2)nc2scc(-c3ccccc3)n12	-24%	-1.1	-6%	-6	-4.0%	-6	3%
COc1ccccc1N1CCN(/N=C(\C)c2ccccc2O)CC1	-9%	0.6	-4%	·	-1.0%	6	-12%
CCN(C(=O)c1ccc(=O)n(C)n1)c1c(N)n(Cc2ccccc2)c(=O)[nH]c1=O	·	·	9%	-1	-1.0%	·	22%
Cc1cc(C)c(S(=O)(=O)NCc2cn3c(C)csc3n2)cc1C	5%	8.7	-12%	-1	-2.3%	-1	-7%
CCn1c(=O)c(C(=O)NNC(=O)Cc2ccccc2)c(O)c2ccccc21	16%	1.9	-14%	4	·	14	-34%
CC[C@H](C)[C@@H](CN[C@H](CCCCNC)CNC)NCC1CCCC1	11%	-8.1	8%	1	1.6%	-5	-1%
Cn1cccc1C(=O)NC(=O)COC(=O)c1cc(Cl)ccc1[N+](=O)[O-]	11%	-1.2	1%	10	1.7%	-1	0%
Cc1ccc(C2NC(=S)N3C(c4ccc(C)cc4)NC(=S)N23)cc1 (stereo not given)	·	·	·	-16	2.8%	·	-1%
Cc1ccccc1Cn1ccc(NC(=O)c2cc3nc(-c4ccco4)cc(C(F)(F)F)n3n2)n1	6%	4.5	-4%	17	-28%	7	36%
CCc1ccc(NC(=S)N2CCCCCCC2)cc1	17%	5.5	9%	7	·	-17	-5%[15.4 µM]
COc1ccc(NC(=O)Nc2c(C)n(C)n(-c3ccccc3)c2=O)c(OC)c1	8%	·	7%	4	-4.2%	19	-6%[15.4 µM]
O=C(COC(=O)C1=COCCO1)Nc1cccc(Oc2ccccc2)c1	1%	1.2	-4%	0	0.8%	7	16%
Cc1cc(C(=O)NNC(=O)/C=C/c2ccco2)c(C)o1	·	·	7%	-20	-2.8%	2	-21%
c1cnc(NC2C3CC4CC(C3)CC2C4)nc1 (stereo not given)	10%	0.7	7%	2	-24%	-26	-63%[inhibitor]
COc1ccc(-c2noc(CCC(=O)NCc3cc(Br)ccc3OC)n2)cc1	7%	-1.1	-18%	0	?	1	-42%[inhibitor]
O=C(Nc1ccccn1)c1ccc(-c2ccccc2)cc1	-8%	-0.8	-7%	-2	·	5	-29%
CC1=C(C#N)C(NC(=O)c2ccc(C)cc2)(C(F)(F)F)C(=O)N1 (stereo not given)	-3%	2.6	10%	8	?	-3	-31%[inhibitor]
Cc1cccc(NC(=O)/C(C#N)=C\c2ccc(C(=O)O)cc2)c1	35µM*	3.5	-3%	-10	·	3	-2%[15.4 µM]
COc1cc(OC)c(-c2nn3c(-c4cccnc4)nnc3s2)cc1OC	26%	-6.3	·	·	·	-6	·
CN(C(=O)COC(=O)/C=C/c1ccc2c(c1)OCO2)c1c(N)n(Cc2ccccc2)c(=O)[nH]c1=O	·	·	-3%	5	?	6	1%[15.4 µM]
C[C@H](CO)N1C[C@H](C)[C@@H](CN(C)C(=O)Nc2ccc3c(c2)OCO3)Oc2c(NS(=O)(=O)c3ccc(F)cc3)cccc2C1=O	·	·	-6%	-1	-4.0%	·	·
COc1ccccc1N1CC(C)(C)C(=O)N(C(=O)c2ccc(C)cc2)C1=S	2%	1.3	-6%	-2	-1.3%	-16	-3%[15.4 µM]
C=CCn1c(C)nnc1SCC(=O)c1[nH]c(C)c(C(C)=O)c1C	23%	-6.3	-18%	0	-0.1%	9	4%[15.4 µM]
Cc1ccc2cc(CCNS(=O)(=O)c3ccc(F)cc3)c(=O)[nH]c2c1C	11%	-2.1	-7%	3	2.0%	-7	2%
CCN(CC)c1ccc(NC(=O)COC(=O)CCC(=O)c2cccs2)cc1	·	·	-6%	·	1.6%	-23	3%
Nc1c(C(=O)N/N=C/c2cccnc2)oc2nc(-c3ccccc3)cc(-c3ccco3)c12	-24%	?	-29%	-3	·	-36	-4%[15.4 µM]
Cc1ccc(-c2nnn(Cc3nc(N)nc(N4CCOCC4)n3)n2)cc1	17%	3.6	-11%	4	0.1%	18	-5%
Cc1cccc(C(=O)NCc2ccco2)c1	-9%	13	8%	1	·	3	-39%[inhibitor]
CC(C)(C)c1ccc(SCCc2cccnc2)cc1	-2%	0.4	-1%	·	1.8%	·	-13%
O=C(NC(Cc1ccc2c(c1)OCO2)C(=O)NC(Cc1ccccc1)C(=O)O)c1ccccc1 (stereo not given)	5%	0.3	-2%	6	-0.1%	12	-2%
Cc1nn(Cc2ccccc2)c(C)c1C(=O)Nc1ccc(N2CCOCC2)cc1	-10%	0.9	-3%	-4	1.3%	-11	11%
COc1cc2ccccc2cc1C(=O)N(CCN(C)C)c1nc2ccc(C)cc2s1	79µM*	-1.1	16%	?	1.5%	-26	-6%
COc1ccc(-c2n(Cc3ccccc3)c3ccccc3[n+]2Cc2ccccc2)cc1	-19%	3.1	-7%	0	3.6%	10	0%
COc1cccc(C(=O)NCCN2C(=O)S/C(=C/c3cccs3)C2=O)c1OC	1%	-0.3	-9%	-3	-25%	21	-1%[15.4 µM]
Cc1c(C(=O)O)cccc1-n1c(C)cc(/C=N/Nc2ccc([N+](=O)[O-])cn2)c1C	32µM*	11	-13%	-20	1.3%	0	?
COc1ccc(N2CCN(CCCNC(=O)C3(S(=O)(=O)c4ccc(Cl)cc4)CC3)CC2)cc1	-9%	-0.6	1%	-6	-1.7%	-12	-114%[inhibitor]
Cc1ccccc1OCCNC(=O)c1ccco1	12%	-10	1%	1	·	-25	3%[15.4 µM]
CC(OC(=O)/C=C/c1cccc(Cl)c1)C(=O)NC1CCCCC1C (stereo not given)	·	·	12%	0	-2.0%	1	-16%
Additional results follow.
SMILES	Sfp inh	Menin MLL FP FL	gsp antagonist	CtBP-E1A blk	ClpP mod	TRPV1 PAM	gsp ag
CNc1snc(C)c1C(=O)OCC(=O)Nc1ccc(C)cc1F	·	·	-4%	3	0.6%	-13	4%[15.4 µM]
CCn1nc(C)cc1C(=O)OCC(=O)c1ccc(Cl)cc1	-1%	·	8%	-14	-0.1%	2	-29%
Cc1cc(C)n2nc(C(=O)OCC(=O)N(C)CC(=O)Nc3ccccc3Cl)nc2n1	·	·	18%	3	-1.2%	5	?
COc1ccc(CCC(C)NCc2cccc(Br)c2)cc1 (stereo not given)	3%	0.7	6%	·	0.3%	8	12%
CCOC(=O)Cn1nc(NC(=O)COc2ccc(F)cc2)cc1C	6%	-9.8	13%	12	1.2%	-6	-23%
Cc1ccc(CNC(=O)CC2(CC3=NS(=O)(=O)c4ccccc4N3)CCCC2)cc1	-1%	-4.4	?	1	-0.1%	-8	-146%
COc1cccc(CNC(=O)N[C@@H](CC(C)C)C(=O)O)c1	14%	-1.4	9%	-4	1.0%	1	7%
CC(C)C(=O)Nc1nc2cc3c(cc2s1)OCCO3	7%	-2.5	-4%	-4	·	-12	3%[15.4 µM]
O=C(CN1CCN(C/C=C/c2ccccc2)CC1)Nc1ccccc1C(=O)NC1CC1	?	0.5	4%	·	-2.2%	-13	0%
COCCNCc1cc(C)n(-c2cc(S(=O)(=O)N3CCOCC3)ccc2N2CCCC2)c1C	·	·	2%	-1	1.2%	·	1%
O=CC(=Cc1ccccc1)c1ccccc1	·	·	·	1	0.2%	·	-4%
O=Cc1s/c(=N\S(=O)(=O)c2ccccc2)n(CCCCl)c1Cl	-64%	12	-3%	3	-1.0%	-9	-32%[inhibitor]

Compounds shown so far that contain a cyano group:
SMILES	Sfp inh	Menin MLL FP FL	gsp antagonist	CtBP-E1A blk	ClpP mod	TRPV1 PAM	gsp ag
CC1=C(C#N)C(NC(=O)c2ccc(C)cc2)(C(F)(F)F)C(=O)N1 (stereo not given)	-3%	2.6	10%	8	?	-3	-31%[inhibitor]
Cc1cccc(NC(=O)/C(C#N)=C\c2ccc(C(=O)O)cc2)c1	35µM*	3.5	-3%	-10	·	3	-2%[15.4 µM]

No enrichment for hits; 5.3% or so of the library scored in one or more.
